Bioassay records: PubChem, several laboratories
Calb FLC – C. albicans growth inhibition with fluconazole, primary screen, CaCi-2 strain, Alamar Blue fluorescence. growth inhibition, % (test concentration not listed). AID 1979, 2009. 300,000 compounds, 0.57% hits. C. albicans CaCi-2 (fluconazole-resistant clinical isolate) + fluconazole, 48 h;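 active = most replicates above 75%; inconclusive = exactly half above 75%; inactive = most below 75%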;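 also: all wells also contain fluconazole at 8 µg/ml as a sub-toxic cotreatment; 0% = median of DMSO wells and 100% = median of geldanamycin control wells; wells of about 8 µL received 7.5 nL stock; the first replicate is given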
MLL AF4-AF9 inh – inhibitors of AF4 peptide binding to AF9, primary screen, biochemical, AlphaScreen, biotin-AF4 peptide, FLAG-AF9, single point; inhibition, % at 10 µM; Protein AF-9 (Homo sapiens), P42568; 350,000 compounds, 0.47% hits; AID 651704, 2012;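 active = every replicate reaching a set inhibition limit, whatever the replicate mean, cut at about 25% in these data; inconclusive = mean inhibition reaches that limit but some replicates miss it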;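 also: 0% = plate neutral control median and 100% = total signal loss; the record names both 10 and 1 µM as test concentration; the first replicate is given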
Target sequence (P42568 whole entry, looked up): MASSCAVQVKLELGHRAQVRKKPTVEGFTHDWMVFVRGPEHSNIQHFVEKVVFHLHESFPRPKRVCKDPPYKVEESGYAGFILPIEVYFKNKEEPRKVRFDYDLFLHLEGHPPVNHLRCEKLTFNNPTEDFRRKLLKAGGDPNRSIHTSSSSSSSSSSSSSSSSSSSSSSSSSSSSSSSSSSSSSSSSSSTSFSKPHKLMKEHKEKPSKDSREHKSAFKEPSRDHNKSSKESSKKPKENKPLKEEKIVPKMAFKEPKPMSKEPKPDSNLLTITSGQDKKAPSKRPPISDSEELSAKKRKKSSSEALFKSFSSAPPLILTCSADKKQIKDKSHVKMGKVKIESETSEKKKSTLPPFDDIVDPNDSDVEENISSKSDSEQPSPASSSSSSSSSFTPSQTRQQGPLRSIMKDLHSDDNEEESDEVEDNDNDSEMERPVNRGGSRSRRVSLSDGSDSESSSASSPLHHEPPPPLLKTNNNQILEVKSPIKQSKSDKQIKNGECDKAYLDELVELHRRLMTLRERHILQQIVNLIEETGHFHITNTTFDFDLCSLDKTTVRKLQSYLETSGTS
rRNA inh HTS – reduced GFP signal of wild-type E. coli, primary screen, bacterial rRNA inhibitor project, GFP/RFP fluorescence, OD600, single point; E. coli WT GFP vs humanized-ribosome RFP mutants, 24 h; hits give low values; DMSO median 0, no signal -100; GFP signal change (wild-type ribosome), % (no concentration beside the values); 350,000 compounds, 1.6% hits; AID 720706, 2013;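 active = significant combined selectivity score with lowered wild-type GFP, culture density cut under 30%, mutant RFP and density less affected; inactive = any of these conditions unmet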; also: one replicate is shown; some compounds called inactive have numbers as strong as hits
Beta apoptosis – inhibitors of cytokine-induced beta cell apoptosis, primary screen, luminescence. INS-1E cytokine-induced death, ATP luminescence, 48 h; percent of positive-control rescue, neutral wells zero. protection from apoptosis, % (test concentration not listed). 300,000 compounds, 0.8% hits;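 active = all replicates at 75% or more, or half of them and the mean; inconclusive = half reach 75% but not the mean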;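 also: 0% = cytokine-treated negative control wells and 100% = positive control rescue; higher means more ATP so stronger rescue from cytokine killing; wells of about 40 µL received 100 nL stock; the first replicate is given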
T cruzi inh – inhibitors of intracellular T. cruzi growth, primary screen, luminescence, NIH3T3 host cells | T. cruzi beta-gal in NIH3T3, 90 h | inhibition, % (test concentration not listed) | 300,000 compounds, 1.4% hits | AID 1885, 2009;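 active = mean inhibition across valid replicates above about 55%, limit read from the data; inconclusive = mean below that limit but half or more replicates reach it; inactive = mean below it, under half of replicates reach it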;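 also: signal also drops with host cell toxicity which is not excluded here; 0% = plate median of DMSO wells and 100% = zero luminescence signal; higher percent means less beta-gal luminescence so fewer parasites; stock transfer was 50 nL into about 50 µL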
RanGTP-Impb inh – inhibitors of RanGTP-importin-beta interaction, primary screen, biochemical, FRET, CFP-Ran, YFP-importin-beta, homogeneous. Ran GTPase (GTP-bound) - importin-beta complex. cell-free CFP-Ran/YFP-importin-beta FRET ratio. inhibition, % (test concentration not listed). 300,000 compounds, 1.1% hits. AID 2216, 2009;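 active = most replicates above 15%; inconclusive = exactly half above 15%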;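 also: 0% = DMSO wells and 100% = Ran loaded with GDP instead of GTP; wells of about 40 µL received 100 nL stock; the first replicate is given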
Bfl-1 A1 inh – caspase 3/7 activation in MEF A1-2A-BIM cells, primary screen, A1 inhibitor project, cell-based, luminescence, HTS | Caspase-Glo 3/7 luminescence, 3 h; percent of clofoctol response, vehicle zero | caspase activation, % (no concentration beside the values) | 330,000 compounds, 0.066% hits | AID 2462, 2010;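 active = over half of replicate activation scores above 10%, or exactly half above 10 with the replicate mean above 10; inconclusive = replicate mean below 10 yet half the replicates above 10; inactive = over half of replicates below 10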;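 also: wells of about 30 µL received 50 nL stock; many hits fall short of the cut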
Vif TR-FRET – inhibitors of Vif binding to APOBEC3G peptide, primary screen, biochemical, TR-FRET, GST-Vif 1-94, biotin-A3G peptide, dose response retest (AID 1117319). Virion infectivity factor (Human immunodeficiency virus type 1 group M subtype B (isolate …. TR-FRET GST-Vif / biotin-A3G peptide binding; higher % means a stronger effect; test concentration not given here; strong numbers were not always called active. inhibition, %, or IC50 in µM where a hit was titrated. 260,000 compounds, 0.57% hits;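 active = above the screen mean plus three standard deviations and confirmed in dose response; inconclusive = results disagree or hit not tested in dose response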;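 also: Vif residues 1-94 fused to GST binding biotinylated APOBEC3G peptide 110-148; 0% = full assay without inhibitor and 100% = GST in place of GST-Vif; retest series ran down from 100 µM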
rRNA inh HTS OD600 – also measured in rRNA inh HTS; calls as there; OD600 change, %; measured here: OD600 growth;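 optical density of the mix in the first replicate; 0 = DMSO median and -100 = no signal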
rRNA inh HTS RFP – recorded beside rRNA inh HTS, whose call it bears; RFP signal change, %; measured here: RFP humanized mutant strains;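 first replicate; 0 = DMSO median and -100 = no signal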
* hit, by the source's call; ? = inconclusive; / = no result given. Some of the compounds tested, so the mix of outcomes need not match the whole.

SMILES	Calb FLC	MLL AF4-AF9 inh	rRNA inh HTS	rRNA inh HTS OD600	rRNA inh HTS RFP	Beta apoptosis	T cruzi inh	RanGTP-Impb inh	Bfl-1 A1 inh	Vif TR-FRET
Cc1cc(C)nc(SCC(=O)NN=C2CCCC2)n1	-1	-1.8	7	0	-1.6	1	2	0.8	0.2	17%
COc1cc(/C=C2\C(=O)ON=C2c2ccccc2)cc(Cl)c1O	26	0.7	-3	2	20	-7	-8	?	-0.9	-3%
CCCNC(=O)c1cc(-c2ccc(OC)cc2)on1	-10	/	/	/	/	-3	-6	-4.8	-2.7	4%
C=CCNC(=O)C(=O)NCC(c1ccc2c(c1)OCO2)N1CCOCC1 (stereo not given)	40	-4.3	20	14	2.8	2	-5	4.0	-0.3	/
O=C1CC(N2CCN(c3ccccn3)CC2)C(=O)N1c1ccc(F)cc1 (stereo not given)	-5	-2.0	7	6	1.6	-3	-10	-1.0	0.2	-6%
NS(=O)(=O)c1ccc(CCNC(=O)C2CCCN(S(=O)(=O)c3cccnc3)C2)cc1 (stereo not given)	/	-1.5	9	23	-1.3	-4	/	/	-0.2	10%
Cc1nnc(Sc2nc3c(c(=O)n(C)c(=O)n3C)n2Cc2ccccc2Cl)s1	-3	/	/	/	/	0	9	17*	-0.3	/
COc1cccc(C2=CC(=O)CC(C)(C)C2)c1OC	/	0.5	-16	-31	3.5	-3	/	/	2.0	/
CCC1CCCCN1C(=O)c1ccccc1OC1CCN(S(C)(=O)=O)CC1 (stereo not given)	2	0.0	11	4	2.9	-1	-1	-1.0	-0.2	7%
CCCOc1cccc(C(=O)NCCNC(=O)c2ccccn2)c1	-6	0.2	-2	-8	-0.7	5	8	-1.3	0.4	/
Cn1c(=O)oc2cc(S(=O)(=O)N3CCN(c4ccccc4F)CC3)ccc21	-4	-0.6	20	6	1.2	-2	2	2.4	-1.0	6%
Cc1ccnc(NS(=O)(=O)c2ccc(CC(C)C)cc2)c1	25	-33	7	6	-0.9	-8	14	1.1	0.7	-4%
CC(C)n1c(C(F)(F)F)nc2cc(C(=O)N3CCCCC3)ccc21	3	-1.6	9	2	-1.8	0	-14	1.8	-0.1	-7%
CCCSc1ccc([C@H]2N[C@@](C)(C(=O)OC)[C@H]3C(=O)N(CC)C(=O)[C@@H]23)cc1	/	-0.8	-5	-3	-2.7	-6	/	/	?	/
Cc1cc(NC(=O)c2cccs2)ccc1NC(=O)Cc1ccccc1	-20	1.1	5	1	-1.1	2	6	1.3	0.7	-4%
CCN(CC)CCOc1ccccc1OC	-3	-5.3	8	8	0.1	3	-5	-0.3	0.0	/
O=C(NCCc1ccc(Cl)cc1)C1CCC(=O)N1C1CCCC1 (stereo not given)	-1	/	/	/	/	4	5	-3.7	0.8	1%
CC(C)Cn1c(N)c(C(=O)CSc2nccn2C)c(=O)n(C)c1=O	5	0.0	4	8	0.5	-2	-15	/	0.2	-7%
Cc1ccc(CSc2nnc(-c3cccnc3)o2)cc1	14	/	/	/	/	-12	-3	1.3	-0.4	3%
Cc1cc(=O)oc(C)c1C(=O)NCc1cccnc1	-2	-15	21	12	-7.8	1	-10	?	0.5	4%
Cc1cc(NC(=O)CCCC(=O)N(c2ccccc2)C(C(=O)NC2CCCCC2)c2cccs2)no1 (stereo not given)	3	/	/	/	/	3	12	4.2	0.4	12%
CC(/C=C1\SC(=S)N(CCCC(=O)Nc2ccc(C(=O)O)c(O)c2)C1=O)=C\c1ccccc1	14	/	/	/	/	1	5	0.0	-0.8	5.1µM*
O=C(NC1CC1)C1CCCN(C(=O)Nc2ccc(F)cc2)C1 (stereo not given)	-1	/	/	/	/	1	-12	?	-0.2	/
COc1ccc(N(CC(=O)Nc2cc(OC)cc(OC)c2)S(=O)(=O)c2c(C)n[nH]c2C)cc1	4	-0.8	-10	-13	0.9	-5	13	-0.5	1.2	/
O=C(CNC(=O)N1CC(=O)Nc2ccccc21)Nc1ccc(F)c(Cl)c1	/	3.1	-16	-10	-7.2	-7	-4	0.1	-0.2	/
CCOCCCN(C(=O)c1snc(C(N)=O)c1N)C(C(=O)NCCC(C)C)c1ccc(Cl)cc1 (stereo not given)	21	-3.8	6	7	3.5	0	14	?	-0.1	-2%
CC(C)C1Oc2cc3oc(=O)ccc3cc2C1=O (stereo not given)	9	-2.6	3	5	-1.8	6	-11	?	-0.3	/
Cc1cc(SCc2ccccc2C)nc(=O)[nH]1	1	-2.0	-12	-3	1.5	/	-3	3.8	-0.6	6%
O=C(CN(Cc1ccco1)C(=O)c1cccc(Cl)c1)Nc1c(Cl)cc(Cl)cc1Cl	-10	/	/	/	/	3	16	2.7	-0.4	25%
CSc1ncccc1C(=O)NCc1nnc2ccccn12	/	5.7	13	9	1.4	1	/	/	-0.3	54%
Cc1cc(C)c(C)c(S(=O)(=O)ON2C(=O)c3ccccc3C2=O)c1C	101*	1.4	15	19	1.9	/	8	1.9	1.4	2%
Fc1ccccc1-c1n[nH]c(=S)n1Cc1ccccc1	1	/	-2	-14	1.8	1	4	0.0	0.2	-8%
O=C(O)/C(=C\c1ccco1)NC(=O)c1ccccc1	-11	-2.7	-15	-14	0.5	-19	-19	0.9	-0.9	?
CC(N=Cc1c(O)c2ccccc2oc1=O)C(=O)O (stereo not given)	-6	-4.8	-15	-10	-6.9	-12	-18	-5.5	-1.0	14%
O=Cc1cc(N=Nc2cccc(C(=O)O)c2)ccc1O	-20	-1.9	16	25	5.7	18	1	-2.5	-6.8	8%
O=C(c1sc2cccc(F)c2c1Cl)N1CCN(c2ncccn2)CC1	7	/	/	/	/	3	18	2.3	-0.2	-6%
CNC(=O)CSc1nc2cccnc2n1-c1ccc(F)cc1	-7	0.1	10	7	-0.2	-1	6	3.9	-0.9	/
COc1cc(NC(=O)NCCN2CCN(c3ccccc3)CC2)cc(OC)c1OC	-12	-0.8	8	11	8.3	2	5	0.6	0.6	-2%
COc1ccc(N2CCN(C(=O)CNC(=O)c3ccccc3Cl)CC2)cc1	-14	2.2	1	-7	0.8	-3	1	-1.2	1.1	1%
Cc1ccc(C)n1-c1nc(=S)[nH][nH]1	11	/	/	/	/	0	3	1.5	0.5	9%
Cc1ccc(CNC(=O)C2(S(=O)(=O)c3ccc(C)cc3)CC2)cc1	-8	-3.1	4	0	0.4	1	-5	6.9	0.6	/
O=C(c1ccc([N+](=O)[O-])o1)N1CCc2ccccc21	11	3.2	-3	-16	-2.9	6	42	1.6	-3.9	/
COc1cc(-c2noc(C)c2C(=O)NCc2ccc(C)o2)cc(OC)c1OC	/	-0.2	0	8	-1.1	2	/	/	-0.1	-5%
O=C1CS/C(=C\[N+](=O)[O-])N1c1ccc(OC(F)(F)F)cc1	-10	/	/	/	/	-4	-9	-5.6	-0.2	12%
O=C(Cn1cc(C(=O)C2CC2)c2ccccc21)Nc1ccccc1Cl	2	1.0	2	10	-2.3	1	-5	1.7	0.1	/
O=C1NCC(c2ccccc2)C1C(=O)N/N=C\c1ccc(-c2cccc(Cl)c2Cl)o1 (stereo not given)	-4	/	/	/	/	-3	10	4.2	-0.1	0%
O=C(CNC(=O)COc1ccccc1)NCc1cccnc1	0	-3.2	11	14	-0.7	-1	-4	-0.3	0.1	/
COC(=O)c1ccc(COC(=O)CNC(=O)CNC(=O)c2ccc(C)cc2)cc1	32	7.1	15	17	1.4	-6	-12	-0.1	1.3	1%
CCCCNc1c(-c2ccc(SC3CCCCC3)cc2)nc2ccccn12	12	5.9	-17	-20	-0.9	?	71*	?	-7.8	/
CSc1ccc(-c2nc(O)c3cnccn23)cc1	-12	-0.9	9	22	4.1	3	-14	0.8	-0.8	9%
Oc1ccccc1CNc1ccc(Br)cn1	2	/	/	/	/	-11	-7	-1.3	0.8	1%
O=S(=O)(c1cccc2nsnc12)N1CCN(c2ncccn2)CC1	23	/	/	/	/	/	2	0.3	-0.2	0%
CC(C)(C)NC(=O)c1ccc(COc2ccccc2Br)o1	-4	/	/	/	/	-4	4	-2.1	-1.2	2%
O=C(Cc1cn2ccsc2n1)Nc1ccccc1Oc1ccccc1	7	/	/	/	/	-7	8	0.2	-0.4	5%
COc1ccc(NC(=O)c2ccc(NCC3CCCO3)c([N+](=O)[O-])c2)cc1 (stereo not given)	11	1.1	-3	4	-5.9	-1	-8	1.9	0.0	12%
O=C(OC1CCOC1=O)c1cccc(S(=O)(=O)Nc2ccc(F)cc2)c1 (stereo not given)	-3	-4.5	-2	5	-12	-5	0	-1.8	1.0	/
Nn1c(SCC(=O)Nc2ccc(OC(F)F)cc2)nnc(Cc2ccccc2)c1=O	-4	-0.8	-17	-15	3.7	/	-6	-0.4	-0.1	0%
CCc1ccccc1NC(=O)C(CC)Sc1nc2cc3c(cc2c(=O)n1Cc1ccco1)OCO3 (stereo not given)	22	/	/	/	/	/	-2	2.8	?	-7%
CCOCCCNC(=O)/C(C#N)=C/c1ccc(C(=O)OC)cc1	-3	0.3	-2	-2	0.2	-13	-20	-1.2	-1.0	/
CC(/C=C1\SC(=O)N(CC(=O)Nc2ccc(O)cc2)C1=O)=C\c1ccccc1	-8	7.2	-27	-23	-9.2	0	4	1.9	0.4	-6%

The results go on:
SMILES	Calb FLC	MLL AF4-AF9 inh	rRNA inh HTS	rRNA inh HTS OD600	rRNA inh HTS RFP	Beta apoptosis	T cruzi inh	RanGTP-Impb inh	Bfl-1 A1 inh	Vif TR-FRET
COC(=O)C(C)Sc1snnc1-c1ccccc1 (stereo not given)	-5	/	/	/	/	0	-6	-2.2	-0.2	2%
Cn1cnc2cc(NC(=O)c3ccc(Cl)cc3)ccc21	10	-4.1	-5	-1	-2.1	2	-10	-1.2	-1.9	11%
COc1ccc(C(=O)COC(=O)c2ccccc2NS(=O)(=O)c2ccc(O)c([N+](=O)[O-])c2)cc1	29	-23	-9	-24	8.9	4	-10	-1.6	0.0	1%
CCn1c(SCC(=O)Nc2ccc(OC)cc2OC)nc2nc3c(cc2c1=O)COC(C)(C)C3	18	2.9	/	/	/	-4	/	-3.3	-0.4	19%
CCC12CCCN3CCC4(C(=C(C(=O)OC)C1)Nc1ccccc14)C32 (stereo not given)	12	/	/	/	/	/	-1	-1.7	/	1%
COc1ccccc1CNC(=O)COC(=O)Cc1c[nH]c2ccccc12	0	-0.4	-4	-3	0.4	0	-6	-4.0	0.5	-5%
